TRPML1 agonist: activates the human TRPML1 channel; Q9GZU1; TRPML1-expressing cells, Ca2+ dye fluorescence, FDSS; host cell line not named in the record; reference of the full effect not given here; activation, % (no concentration beside the values); 0.12% of 410,000 active; AID 624414; in the data active = activation above about 50%; inconclusive = about 30% to 50%; inactive = below about 30%; further: 0% is about no effect; the text of the record puts the active cut at 80%
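Tet-induced TRPML1-DL cells, 1,500 per well, cultured overnight, were loaded with a no-wash Ca2+ dye for 45–90 min. Calcium fluorescence was recorded on the FDSS for 110 s after compound addition, before the EC80 agonist (4 uM 54-4) was added.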
TRPML1 inh: human mucolipin-1 channel inhibition; Q9GZU1; TRPML1-inducible cells, Ca2+ dye fluorescence, FDSS; stronger effect = lower value; inhibition of EC80 agonist-evoked calcium signal; activity change, negative = inhibition, % (no concentration beside the values); 0.02% of 390,000 active; AID 624415; in the data active means activity change below about -50%; inconclusive means about -30% to -50%; inactive means above about -30%;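 further: stimulus is agonist 54-4 at its EC80 concentration; on the % scale 0 is the no-effect control and ±100 the full control effect; compound concentration not given in the record; the text of the record puts the active cut at -80%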
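Calcium fluorescence in TRPML1-DL cells induced overnight with Tet: a 110 s read after compound pin addition, then a 110 s antagonist read after challenge with 54-4 at 4 uM final (EC80).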
Six1-Eya2 blk: Six1/Eya2 interaction inhibition | Q15475+O00167 | activity change, % (concentration not given with the values) | 0.56% of 360,000 active | AlphaScreen GST-Six1/His-Eya2 binding, biochemical; stronger effect = lower value; control for the full effect not named in the record | AID 651725; in the data active = activity change below about -65%; inconclusive = about -30% to -65%; inactive = above about -30%; further: on the % scale 0 is the no-effect control and ±100 the full control effect
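Compounds are tested against tagged Six1 and Eya2 proteins bridged by glutathione donor and nickel acceptor beads; after a one-hour incubation at 37 °C without light, AlphaScreen emission is recorded.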
TRPV1 potentiator: potentiators of human vanilloid receptor 1 (TRPV1) | AID 540277 | 0.02% of 320,000 active | Q8NER1 | TRPV1-expressing cells, Fluo-8 calcium influx, capsaicin EC20 potentiation; host cell line not named in the record; control for the full effect not named in the record | potentiation, % at 8.33 µM; active means potentiation above 80%; inconclusive means 30% to 80%; inactive means below 30%; further: 0% is about no effect
Target sequence (Q8NER1 whole entry, looked up): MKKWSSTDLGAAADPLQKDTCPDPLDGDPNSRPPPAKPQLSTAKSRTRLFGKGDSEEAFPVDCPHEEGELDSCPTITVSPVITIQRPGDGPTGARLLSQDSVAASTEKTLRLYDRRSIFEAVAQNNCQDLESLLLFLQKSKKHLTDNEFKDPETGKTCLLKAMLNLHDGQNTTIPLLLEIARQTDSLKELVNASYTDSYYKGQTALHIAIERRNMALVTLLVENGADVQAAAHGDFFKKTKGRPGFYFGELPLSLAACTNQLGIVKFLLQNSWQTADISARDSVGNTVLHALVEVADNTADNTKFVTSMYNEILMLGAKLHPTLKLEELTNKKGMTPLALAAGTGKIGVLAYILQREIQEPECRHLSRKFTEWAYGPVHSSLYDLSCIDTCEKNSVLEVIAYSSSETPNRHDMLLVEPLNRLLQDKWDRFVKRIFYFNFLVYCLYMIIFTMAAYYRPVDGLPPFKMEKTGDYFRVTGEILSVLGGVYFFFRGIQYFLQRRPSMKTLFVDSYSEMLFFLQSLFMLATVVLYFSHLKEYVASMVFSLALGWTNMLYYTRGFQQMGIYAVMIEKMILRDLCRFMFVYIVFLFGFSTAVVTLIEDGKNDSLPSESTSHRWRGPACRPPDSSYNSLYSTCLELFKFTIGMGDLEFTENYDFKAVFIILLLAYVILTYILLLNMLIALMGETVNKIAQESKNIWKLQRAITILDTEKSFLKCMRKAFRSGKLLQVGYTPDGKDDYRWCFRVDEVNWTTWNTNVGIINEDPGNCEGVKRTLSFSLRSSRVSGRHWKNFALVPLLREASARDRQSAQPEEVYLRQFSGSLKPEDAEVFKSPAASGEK
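Fluo-8 calcium influx in TRPV1-expressing cells, kinetic read (ex 480/em 520 nm). Compound added and read 3 min for agonist activity, followed by capsaicin at EC20 final and 2 min further read for enhancement.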
CtBP-E1A blk: inhibitors of CtBP/E1A interaction; AlphaScreen GST-E1A/His-CtBP binding, 1536-well; stronger effect = lower value; control for the full effect not named in the record; activity change, % (test concentration not listed); 0.49% of 340,000 active; AID 651724; in the data active means activity change below about -65%; inconclusive means about -30% to -65%; inactive means above about -30%; further: on the % scale 0 is the no-effect control and ±100 the full control effect; compound concentration not given in the record
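AlphaScreen with 125 nM GST-E1A and 125 nM His-CtBP (5X stocks) in Tris pH 8.0, 300 mM NaCl, BSA, Tween 20, TCEP. Compounds preincubated 2 h at 37 deg C, then glutathione donor/nickel acceptor beads added for 1 h at 37 deg C in dark.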
D2 potentiator: positive allosteric modulators of human D2 dopamine receptor; potentiation, % (test concentration not listed); DiscoveRx D2 beta-arrestin cells, luminescence, 90 min; 100% = 57 uM dopamine signal; P14416; 0.23% of 360,000 active; AID 624464; active = potentiation of 50% or more; inconclusive = 30% to 50%; inactive = 30% or less;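 further: compound concentration not given in the record; tested on top of an EC20 dose of dopamine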
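PathHunter beta-arrestin assay in DiscoveRx D2 cells. Compounds were added with an EC20 of dopamine (50 nM final) for 90 min at 37 deg C. Luminescence was read 1 h after detection reagent, with 57 uM dopamine as the EC100 control.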
Active calls of the source: *; ? = inconclusive; nt = no result given; & = joins results of further samples.

SMILES | TRPML1 agonist | TRPML1 inh | Six1-Eya2 blk | TRPV1 potentiator | CtBP-E1A blk | D2 potentiator
COc1cccc(C(NC(C)=O)c2nc(-c3ccc(OC)nc3)cs2)c1 (stereo not drawn) | -0.4 | nt | -1 | nt | -6 | -9
CC(=O)NC(C)(c1ccccc1)c1nc(-c2csc3ccccc23)cs1 (stereo not drawn) | -0.7 | nt | 0 | nt | -6 | 8
CC(C)(C)NC(=O)NC(=O)COC(=O)CCCc1c[nH]c2ccccc12 | 0.6 | 0 | -9 | ? | -6 | 0
Cc1ccc(OCC(=O)NCCCNC(=O)c2cnccn2)cc1C | 1.1 | -16 | 3 | -2 | 10 | 0
Cc1ccc(CS(=O)Cc2ccc(C(=O)N3CCN(c4ccccn4)CC3)o2)cc1 (stereo not drawn) | -1.1 | -9 | 0 | 5 | 4 | 14
Cc1ccc(NC(=O)CCS(=O)(=O)c2ccc(Br)s2)cc1 | -1.3 | 4 | -1 | 8 | 4 | -8
CN1CCN(Cc2oc(CO)cc(=O)c2O)CC1 | 0.4 | 28 | 0 | 7 | 4 | -1
CC(C)(C)NC(=O)C1CCN(S(=O)(=O)c2cccc3nsnc23)CC1 | -0.6 | -15 | 4 | 12 | 0 | 0
COc1ccc2nc(NC(=O)CSC3=NCCS3)sc2c1 | 0.2 | -18 | -6 | 22 | -3 | -19
O=C(Nc1ncc(Cc2cccc([N+](=O)[O-])c2)s1)c1ccco1 | 2.0 | -5 | 4 | -11 | nt | -5
CCN1CCN(S(=O)(=O)c2ccc(C(=O)Nc3sc4c(c3C(N)=O)CCN(CC)C4)cc2)CC1 | 0.2 | 4 | 3 | 2 | 2 | -21
O=C1[C@@H]2[C@H](C(=O)N1CC(O)COCc1ccccc1)C1C=C[C@H]2C1 (stereo partly drawn) | -0.1 | 12 | 5 | nt | 0 | -4
COc1ccc([N+](=O)[O-])cc1NC(=O)c1ccc(Br)s1 | -0.8 | 12 | -2 | -2 | -4 | -14
COc1ccc(Cl)cc1C(=O)Nn1c(-c2cccs2)nc2ccccc2c1=O | -0.5 | -6 | -2 | 3 | -2 | -2
COc1ccc(NS(=O)(=O)c2ccc3c(c2)N(C(C)=O)CCO3)c(OC)c1 | 0.2 | 9 | 4 | -13 | nt | -10
COC(=O)c1c(NC(=O)CSc2nc(-c3ccco3)cc(C(F)(F)F)n2)sc2c1CCCC2 | 1.3 | -2 | 0 | 9 | -13 | -15
CCN(CC)S(=O)(=O)c1ccc(-n2c(=O)c(C(C)C)c(C)n2C)cc1 | -1.0 | 13 | 22 | -15 | 3 | -6
O=C(c1ccc2nc[nH]c2c1)N1CCN(S(=O)(=O)c2cccc(F)c2)CC1 | 0.5 | 4 | -7 | -2 | 3 | -4
C[C@@H]1CN([C@@H](C)CO)S(=O)(=O)c2ccc(C#Cc3cccc(F)c3)cc2O[C@@H]1CN(C)CC1CC1 | 0.5 | 13 | -9 | nt | 4 | -4
COC(=O)COc1ccc(C2NC(=O)NC(C)=C2C(=O)NCc2ccccc2)cc1OC (stereo not drawn) | 0.1 | 4 | 1 | 8 | 5 | -5
CCN(c1ccccc1)S(=O)(=O)c1cc(OC)ccc1OC | -0.1 | 1 | 3 | -18 | 5 | -4
CC12CCC(=O)N1C(C(=O)Nc1nc3ccc(Cl)cc3s1)CS2 (stereo not drawn) | 0.8 | -15 | -5 | -6 | -19 | 2
CCOc1ccccc1OCCn1nc2ccccc2n1 | 0.2 | 11 | 10 | 2 | 8 | 1
CC(NC(=O)NCc1cccnc1)(C(F)(F)F)C(F)(F)F | -1.1 | 35 | 2 | -12 | 6 | -6
Cc1cc(C)c(CN2CCCC(CNC(=O)c3ccc(F)cc3)C2)c(-n2cccn2)c1 (stereo not drawn) | 0.5 | 6 | 6 | -12 | -2 | -18

An excerpt from above in order of molecular weight, smallest number first:
SMILES | TRPML1 agonist | TRPML1 inh | Six1-Eya2 blk | TRPV1 potentiator | CtBP-E1A blk | D2 potentiator
CN1CCN(Cc2oc(CO)cc(=O)c2O)CC1 | 0.4 | 28 | 0 | 7 | 4 | -1
CC(NC(=O)NCc1cccnc1)(C(F)(F)F)C(F)(F)F | -1.1 | 35 | 2 | -12 | 6 | -6
CCN(c1ccccc1)S(=O)(=O)c1cc(OC)ccc1OC | -0.1 | 1 | 3 | -18 | 5 | -4
O=C1[C@@H]2[C@H](C(=O)N1CC(O)COCc1ccccc1)C1C=C[C@H]2C1 (stereo partly drawn) | -0.1 | 12 | 5 | nt | 0 | -4
O=C(Nc1ncc(Cc2cccc([N+](=O)[O-])c2)s1)c1ccco1 | 2.0 | -5 | 4 | -11 | nt | -5
Cc1ccc(OCC(=O)NCCCNC(=O)c2cnccn2)cc1C | 1.1 | -16 | 3 | -2 | 10 | 0
COc1ccc([N+](=O)[O-])cc1NC(=O)c1ccc(Br)s1 | -0.8 | 12 | -2 | -2 | -4 | -14
CCN(CC)S(=O)(=O)c1ccc(-n2c(=O)c(C(C)C)c(C)n2C)cc1 | -1.0 | 13 | 22 | -15 | 3 | -6
CC12CCC(=O)N1C(C(=O)Nc1nc3ccc(Cl)cc3s1)CS2 (stereo not drawn) | 0.8 | -15 | -5 | -6 | -19 | 2
O=C(c1ccc2nc[nH]c2c1)N1CCN(S(=O)(=O)c2cccc(F)c2)CC1 | 0.5 | 4 | -7 | -2 | 3 | -4
COc1ccc(Cl)cc1C(=O)Nn1c(-c2cccs2)nc2ccccc2c1=O | -0.5 | -6 | -2 | 3 | -2 | -2
COC(=O)COc1ccc(C2NC(=O)NC(C)=C2C(=O)NCc2ccccc2)cc1OC (stereo not drawn) | 0.1 | 4 | 1 | 8 | 5 | -5

(continued)
SMILES | TRPML1 agonist | TRPML1 inh | Six1-Eya2 blk | TRPV1 potentiator | CtBP-E1A blk | D2 potentiator
Cc1ccnc(NC(=O)CCc2c[nH]c3ccccc23)c1 | 2.0 | 3 | -23 | 10 | -7 | 4
Nc1cccc2cc(-c3ccccc3)oc12 | 1.7 | 11 | -1 | 15 | -4 | -3
Cc1cc(C(=O)COC(=O)c2cc(O)c3ccccc3c2O)c(C)n1CC1CCCO1 (stereo not drawn) | -1.5 | 10 | -13 | -4 | -7 | 83*
CC(C)(CC(=O)O)CC(=O)NCc1c(Cl)cccc1Oc1ccccc1 | 13 | 26 | -3 | 5 | 12 | -2
COc1ccc(-c2cc(C(=O)N/N=C(\C)c3ccco3)c3ccccc3n2)c(OC)c1 | -0.8 | 6 | -9 | 0 | -7 | -2
Cc1ccc(C)c(S(=O)(=O)N2CCN(c3nc(CN4CCOCC4)nc4sc(C)c(C)c34)CC2)c1 | 0.5 | 61 | -15 | -13 | -25 | -4
CCOC(=O)N(C)C[C@@H]1OCc2cnnn2CCCC(=O)N([C@H](C)CO)C[C@H]1C | -0.5 | 15 | 3 | nt | 3 | 6
CCCCCCOc1ccc(N2C(=O)CC(SCCN)C2=O)cc1 (stereo not drawn) | -0.5 | -12 | -5 | 5 | -2 | 5
CCSc1nc2cc(OC)c(OC)cc2c(=O)n1CC | -0.5 | 7 | -5 | -6 | 2 | 5
CC1Cc2ccccc2N1C(=O)C1CCN(S(=O)(=O)c2cccs2)CC1 (stereo not drawn) | -0.2 | -6 | 19 | 3 | 47 | 0
C=COC(=O)CSc1nc(-c2cccs2)ccc1C#N | 1.0 | -5 | 17 | -12 | 11 | -6
COc1ccccc1OCCCn1cc(C#N)c2ccccc21 | 0.8 | -4 | 13 | 0 | 13 | -18
CC1(C)CC(=O)C(CC2=C(O)CC(C)(C)CC2=O)C(=O)C1 | 0.0 | 6 | 14 | ? | -1 | 4
COc1ccc(CCNC(=O)Cn2nc(C)c3c(C)n(-c4ccc(C)cc4)nc3c2=O)c(OC)c1 | 2.4 | -3 | nt | 1 | nt | nt
CCOC(=O)CNC(=S)NN(C)C | 0.1 | -4 | -5 | -1 | 10 | -3
O=C(NCc1ccccc1)c1onc(CSc2ccc(F)cc2)c1C(=O)NCc1ccccc1 | 1.4 | -11 | -4 | nt | 14 | 0
CCN(CC)c1ccc(/C=N/Nc2cccc(C)c2)c(O)c1 | 0.5 | 13 | ? | -5 | -19 | 16
Cc1ccc(S(=O)(=O)N2C[C@H]3[C@H]4C(=O)N(C)C(=O)[C@H]4CC(=O)[C@H]3[C@@H]2c2ccccc2Cl)cc1 | 0.8 | nt | 4 | nt | 6 | -3
CCC(=O)N(Cc1cc2ccc(C)cc2[nH]c1=O)c1ccccc1OC | nt | nt | 0 | 28 | nt | 2
O=C1CN(c2ccc(Cl)cc2)C(=O)CN1NC(=S)Nc1ccc(Cl)cc1 | -0.6 | 41 | 11 | -8 | -4 | 3
CCCCN1CCCCC1C(=O)Nc1c(C)cc(C)cc1C (stereo not drawn) | 1.0 | 11 | 4 | 21 | -3 | -14
O=C(OCn1nnc2ccccc2c1=O)c1cccnc1Cl | -0.5 | 9 | 0 | 3 | 1 | -4
COc1ccc(C(=O)N2CCN(c3ncccn3)CC2)cc1 | 1.1 | -1 | -3 | -5 | -7 | -7
CC1CCN(S(=O)(=O)c2cccc(S(=O)(=O)N3CCCC3)c2)CC1 | 0.5 | 4 | 12 | 3 | 1 | 3
COC(=O)c1sccc1NC(=O)c1ccccc1 | -0.9 | -10 | 5 | 2 | 13 | 0
Remaining list, next part:
SMILES | TRPML1 agonist | TRPML1 inh | Six1-Eya2 blk | TRPV1 potentiator | CtBP-E1A blk | D2 potentiator
CSCCC(=O)Nc1nc(-c2ccccn2)cs1 | -0.3 | -1 | -71* | -2 | -4 | -9
COC(=O)c1ccc(S(=O)(=O)NCc2cccc(OC)c2)n1C | -0.2 | -10 | -3 | -9 | 2 | -2
CC(=O)c1cccc(-c2ccnc3c2CC(C(=O)Nc2cccc(N(C)C)c2)O3)c1 (stereo not drawn) | -1.2 | nt | ? | nt | -28 | -2
O=[N+]([O-])c1cccc2ccc(/C=C/c3cccc(Br)c3)nc12 | -1.0 | 3 | -24 | 21 | 6 | -2
O=[N+]([O-])c1cc(S(=O)(=O)N2CCCC2)ccc1NCCCN1CCOCC1 | 1.5 | -3 | 3 | ? | -2 | -1
Cc1ccc(-n2ncc3c2CC(C)(C)CC3NC(=O)CCCN2CCCC2=O)cc1 (stereo not drawn) | -0.3 | -11 | 6 | -4 | 0 | -1
Cc1cccc(-n2c(N)cc(=O)nc2SCC(=O)Nc2cc(C)on2)c1 | -0.3 | -15 | 4 | -4 | -4 | 7
O=C(CSc1nncc2ccccc12)Nc1ccc(F)cc1 | 0.6 | 20 | 12 | -2 | -10 | -5
CCn1c(SCC(=O)n2nc(C)cc2C)nnc1-c1ccc2c(c1)OCO2 | 0.2 | -3 | -2 | nt | -7 | -19
COc1cccc(CNC(=O)C2CCN(S(=O)(=O)N3CCC(C)CC3)CC2)c1 | -0.8&0.6 | -7&12 | 9 | 9 | 0 | -15
Cc1cc(Br)ccc1NC(=O)c1sc2ncn(CC(=O)N3CCN(c4ccccn4)CC3)c(=O)c2c1C | -0.4 | 13 | 2 | 3 | 6 | 6
COc1ccc(Nc2nc(N)nc(CN3CCN(c4ccccn4)CC3)n2)cc1 | 0.2 | -27 | -16 | 9 | -12 | 4

High-throughput results (PubChem BioAssay)
